Screens: PubChem BioAssay, National Center for Advancing Translational Sciences (NCATS)
VACV mCherry inh = vaccinia inhibition (mCherry reporter) | Vaccinia virus mCherry reporter infection, fluorescence; about a quarter of the inactives have no number | Potency, µM (top dose mostly 36.5 µM), for the others: at the highest dose activity change, negative = inhibition, hits mostly inhibitors | hit rate 0.63% among 310,000; active = well fitted inhibition curve with a large enough effect; inconclusive = small, poorly fitted or top-dose-only effect; inactive = no such curve, though single readings can be large or run the other way; tested in A549 cells; further: nearly all actives have a fitted effect of over 35% in size; inactives centre near -10
Vaccinia Venus = inhibitors of vaccinia virus (Venus reporter); Vaccinia virus Venus reporter expression, fluorescence; Potency, µM (doses to about 36.5 µM), for inactives: at the highest dose activity change, negative = inhibition, actives largely listed as inhibitors; hit rate 0.46% among 330,000; AID 720580; active means well fitted inhibition curve with a large enough effect; inconclusive means small, poorly fitted or top-dose-only effect; inactive means no such curve, though single readings can be large or run the other way; tested in A549 cells; further: nearly all actives have a fitted effect of over 30% in size; inactives centre near -10
An asterisk follows results filed as active; i = inactive; u = inconclusive; x = no result given; & = joins results of further samples; [ ] = dose if it differs, or a comment. On the % scale 0 is the no-effect control and ±100 the full control effect; potency means the concentration at half of the fitted maximal effect.

Molecule	VACV mCherry inh	Vaccinia Venus
Cc1cc(C)c(NC(=O)c2cnn(C)c2)c(C)c1	-18%	-10%
CCOc1ccccc1N(C)S(=O)(=O)c1ccc2[nH]cc(C(=O)N(CCOC)CCOC)c(=O)c2c1	i	-13%
COCCOc1cc(NC(=O)CS(=O)CC(=O)N(C)C)c(Cl)cc1Cl (centres undefined)	-5%	-2%
COC(=O)C1=C(C(=O)OC)[C@@H]2N(C)c3ccc(OC)cc3[C@@]23C[C@@H](C(=O)OC)N(C(=O)C2CCC2)C3=N1	i	-10%
COc1ccc(C(C(=O)NC(C)(C)C)N(C(=O)CNC(=O)c2cccs2)c2ccc(C)cc2)cc1OC (centres undefined)	-12%	-8%
COc1ccc(NC(=O)[C@@H]2CC=C[C@@H]3CCN(Cc4ccccc4)C(=O)[C@@H]32)cc1	-7%&-23%	-28%&-14%
Cc1ccccc1CCN(C(=O)CN1C(=O)c2ccccc2S1(=O)=O)C(C(=O)NCC1CCCO1)c1ccncc1 (centres undefined)	i	-9%
Cc1ccc(-c2nn(C)c(=O)c3ccccc23)cc1CO	0%	-10%
CC[C@H]1OC(=O)[C@H](C)[C@@H](O[C@H]2C[C@@](C)(OC)[C@@H](O)[C@H](C)O2)[C@H](C)[C@@H](O[C@@H]2O[C@H](C)C[C@H](N(C)C)[C@H]2O)[C@](C)(O)C[C@@H](C)[C@@H]2N[C@@H](COCCOC)O[C@H]([C@H]2C)[C@]1(C)O	i	-9%
CCc1ccc(-c2cc(C)no2)cc1S(=O)(=O)NCc1ccco1	-24%	-25%
Cc1cccc(NC(=O)c2nc[nH]c2C(=O)N[C@@H](CCCCNC(=O)OC(C)(C)C)C(=O)OC(C)(C)C)c1	-9%	u
CC12CCC(C(=O)N(NC(=O)c3cccnc3)C1=O)C2(C)C (centres undefined)	-7%	1%
Cn1c(=O)[nH]c(=O)c2c1nc(NCCCO)n2Cc1ccc(F)cc1	i	-9%
COc1ccc(NC(=O)/C(C#N)=C\c2cc(OC)c(OCc3ccc(C(=O)O)cc3)cc2Br)cc1	i	10%
CCc1ccc2c(c1)NC(c1ccc(F)cc1)=NC(c1ccncc1)=N2	-14%	-7%
CCn1c(SCC(=O)Nc2nc3c(s2)CCCC3)nnc1-c1ccccc1	-27%	-25%
Cc1ccc(/C(O)=C2\C(=O)C(=O)N(CCc3c[nH]c4ccccc34)C2c2cccnc2)cc1 (centres undefined)	-19%	7%
Cc1[nH]c2ccc(C(C)C)cc2c1CC(=O)O	i[7.34 µM]	-2%[7.34 µM]
Cc1ccc2nnc(Cl)n2n1	x	-28%
C[C@]12CCC3C(CC[C@H]4C[C@H](OC(=O)c5cccnc5)CC[C@]34C)C1CCC2=O (some centres undefined)	u	-6%
Cc1cc(Cl)ccc1NC(=O)c1cc(S(=O)(=O)N2CCOCC2)cn1C	-5%	-7%
N#C/C(=C/c1ccc(-c2ccc([N+](=O)[O-])cc2)o1)C(=O)Nc1nc(-c2cccs2)cs1	i	0%
CCC1Sc2ccc(S(=O)(=O)Nc3ccc(OC)c(OC)c3)cc2NC1=O (centres undefined)	-11%	-11%
CC(=O)Oc1ccc(N(C(C)=O)S(=O)(=O)c2cc([N+](=O)[O-])ccc2C)cc1	-27%	-13%
CCN(C(=O)COC(=O)CCC(=O)c1cccs1)c1c(N)n(Cc2ccccc2)c(=O)[nH]c1=O	-17%	-8%
CCOC(=O)Cc1csc(NC(=S)NC(=O)CC(C)C)n1	-4%	-22%
CCOC(=O)c1ccc(NC(=O)COc2ccc(S(=O)(=O)NC(C)C)cc2)cc1	i	-13%
Cc1ccc(C(=O)NCCc2nnc3ccc(SCC(=O)Nc4cc(C)on4)nn23)cc1	-20%	11%
Cn1c(=O)n(-c2ccc3c(c2)OCO3)c2nc(-c3ccc(Cl)cc3)nc(C(N)=O)c21	i	-6%
O=C(CCNS(=O)(=O)c1ccccc1)N1CCN(c2ccccc2F)CC1	u	-6%
CSc1cccc(NS(=O)(=O)c2ccccc2)c1	-17%[1.46 µM]	43%[activator]
CSc1nn(Cc2ccc(Cl)cc2)c(N(C(C)=O)C(C)=O)c1S(=O)(=O)c1ccccc1	u	u
CCC1CCCCN1C(=O)CSc1nc2c([nH]c3ccccc32)c(=O)n1C (centres undefined)	-14%	1%
COc1ccc(NC(=O)Cn2cnc3sc(C)c(S(=O)(=O)N4CCN(c5ccccc5OC)CC4)c3c2=O)cc1OC	-4%	-11%
O=C(Cn1cccc1C(=O)c1ccccc1)NCCN1CCOCC1	x	-6%
CC(=O)c1c(C)nc2ccccc2c1N	x	-14%
Cc1ccc(C)c(NC(=O)CSc2nc(=O)n(CCN3CCOCC3)c3c2CCCC3)c1	-1%	-11%
CN(C)C(=O)COC(=O)c1cccc(CN2C(=O)c3ccccc3C2=O)c1	14%	2%
Cc1cc(C)c(/C=C/c2onc(C)c2S(=O)(=O)N2CCC(C(=O)Nc3ccc(Cl)c(C(F)(F)F)c3)CC2)c(C)c1	-17%[7.34 µM]	-12%[7.34 µM]
O=C(COc1ncnc2ccccc12)Nc1ccccc1[N+](=O)[O-]	i	5%

An excerpt of these results, as labelled records:
CSc1cccc(NS(=O)(=O)c2ccccc2)c1
  VACV mCherry inh: -17%[1.46 µM] | Vaccinia Venus: 43%[activator]
CSc1nn(Cc2ccc(Cl)cc2)c(N(C(C)=O)C(C)=O)c1S(=O)(=O)c1ccccc1
  VACV mCherry inh: u | Vaccinia Venus: u

Following part
Molecule	VACV mCherry inh	Vaccinia Venus
COc1cccc(C(C(=O)NC2CCCC2)N(C(=O)c2ccco2)c2ccc(NC(C)=O)cc2)c1OC (centres undefined)	0%	-8%
CC1CCC2CCCCC2N1C(=O)c1cc([N+](=O)[O-])cc([N+](=O)[O-])c1 (centres undefined)	-12%	6%
O=C(CSc1ncc2c(n1)-c1ccccc1N(Cc1ccc(Cl)cc1)S2(=O)=O)c1ccccc1	-13%	-4%
COc1ccc(S(=O)(=O)Nc2ccccc2C)cc1C(=O)N1CCOCC1	i	-5%
COc1ccc(C2CC(=O)Oc3c(C(CCN4CCN(c5ccccc5)CC4)c4ccc(N(C)C)cc4)c(OC)cc(OC)c32)cc1 (centres undefined)	-6%	-16%
COCC1CCN(Cc2c(C(=O)N3CCOCC3)nc3c(C)cccn23)C1 (centres undefined)	-6%	-8%
C/C(=N\NC(=S)NC1CCCCC1)c1c(F)cccc1F	-3%	-15%
Cn1c(=O)[nH]c2cc(-c3noc(-c4ccc(C#N)cc4)n3)ccc21	7%	3%
CCOc1ccc(OCCOC(=O)CNC(=O)c2ccc(Cl)cc2Cl)cc1	-10%	4%
Cc1ccccc1Oc1ncccc1C(=O)/C(C#N)=C/N(C)C	-16%	-9%
O=C(CCc1nc(-c2ccccc2F)no1)NC1CCCCCC1	x	-8%
COc1ccc(NC(=S)NCc2ccco2)c(OC)c1	x	-28%
CCCCN1C(=O)c2ccc(C(=O)Nc3c(N)n(CCCC)c(=O)n(C)c3=O)cc2C1=O	i	-10%
COc1cc(NC(=O)CCCOc2cc(=O)n(C)c3ccccc23)cc(OC)c1OC	-20%	-26%
CC1(C(=O)Nc2ccc3c(c2)OCCO3)CN(S(C)(=O)=O)CC(=O)N1CCc1c[nH]c2ccccc12 (centres undefined)	-27%	7%
COc1cccc(-c2nc(CS(=O)CC(=O)N3CCN(c4cccc(C(F)(F)F)c4)CC3)c(C)o2)c1 (centres undefined)	u	-28%
COc1ccccc1CNc1ncnc2onc(-c3ccc(Cl)cc3)c12	-21%	-11%
CNS(=O)(=O)c1ccc(N=Cc2c(C)[nH]n(-c3ccc(C)cc3C)c2=O)cc1	-13%	3%
N#CC1C(C#N)N2CCCN2C1c1ccc(Cl)cc1 (centres undefined)	0%	-2%
COc1ccc(-c2cn(CCO)nc2-c2ccc(OC)cc2)cc1	-2%	-6%
O=C(NNC(=O)C1CC=CCC1)c1cccc(Br)c1 (centres undefined)	i	-9%
Cc1nn(-c2ccccc2)c(N)c1C1(O)C(=O)N(C)c2ccccc21 (centres undefined)	-14%	-9%
COc1ccc(C(=O)C2CCCN(C(=O)c3cc4nc(C)cc(C)n4n3)C2)cc1F (centres undefined)	-12%	-7%
O=C1Nc2cc(C(=O)N3CCOCC3)ccc2S/C1=C/c1ccccc1F	-15%	u
COc1ccccc1C(=O)COC(=O)COc1cccc2c1OC(C)(C)C2	-5%	-9%
CCOc1ccc(/C=C/c2nc(C#N)c(N(C)C)o2)cc1	u	-26%
COc1ccc(C(=O)NCCCCc2ccccc2)cc1	6%	-3%
C[C@]12CC[C@@H]3c4ccc(O)c(O)c4CC[C@H]3[C@@H]1CC[C@@H]2O	-27%	-15%
O=C(NCCn1ccc2ccccc21)c1ccc2c(c1)OCO2	5%	-1%
Cc1csc2nc(CCNS(=O)(=O)c3ccc4c(c3)OCCO4)cn12	i	-13%
COc1ccccc1C1CN(CC(=O)N2CCC(N3CCOCC3)CC2)Cc2ccccc2O1 (centres undefined)	-3%	-3%
COc1cc(OC)cc(C(=O)OCn2nnc3ccccc3c2=O)c1	i	-6%

Given with two lines to a compound: 12 of the compounds above.
Each structure is followed by: VACV mCherry inh, Vaccinia Venus
O=C(NNC(=O)C1CC=CCC1)c1cccc(Br)c1 (centres undefined)
 : i, -9%
Cc1nn(-c2ccccc2)c(N)c1C1(O)C(=O)N(C)c2ccccc21 (centres undefined)
 : -14%, -9%
COc1ccc(C(=O)C2CCCN(C(=O)c3cc4nc(C)cc(C)n4n3)C2)cc1F (centres undefined)
 : -12%, -7%
O=C1Nc2cc(C(=O)N3CCOCC3)ccc2S/C1=C/c1ccccc1F
 : -15%, u
COc1ccccc1C(=O)COC(=O)COc1cccc2c1OC(C)(C)C2
 : -5%, -9%
CCOc1ccc(/C=C/c2nc(C#N)c(N(C)C)o2)cc1
 : u, -26%
COc1ccc(C(=O)NCCCCc2ccccc2)cc1
 : 6%, -3%
C[C@]12CC[C@@H]3c4ccc(O)c(O)c4CC[C@H]3[C@@H]1CC[C@@H]2O
 : -27%, -15%
O=C(NCCn1ccc2ccccc21)c1ccc2c(c1)OCO2
 : 5%, -1%
Cc1csc2nc(CCNS(=O)(=O)c3ccc4c(c3)OCCO4)cn12
 : i, -13%
COc1ccccc1C1CN(CC(=O)N2CCC(N3CCOCC3)CC2)Cc2ccccc2O1 (centres undefined)
 : -3%, -3%
COc1cc(OC)cc(C(=O)OCn2nnc3ccccc3c2=O)c1
 : i, -6%

Going on with the list.
Molecule	VACV mCherry inh	Vaccinia Venus
CS(=O)(=O)c1ccccc1C(=O)N1CCN(Cc2ccccc2)CC1	-13%	-14%
CCOc1ccc(N2CC(C(=O)OCC(=O)NCc3ccccc3)CC2=O)cc1 (centres undefined)	-15%	-1%
Cn1c(=O)c2c(nc(OC3CCCCCC3)n2C)n(C)c1=O	36%[activator]	-6%
O=C(Nc1ccc(C(O)c2ccccc2)cc1)[C@@H]1O[C@H](CO)[C@@H](O)[C@H]1O (some centres undefined)	16%	1%
Cc1cccc(OCc2n[nH]c(=S)o2)c1C	i	-7%
O=C(Cc1ccc(Cl)cc1)Nc1ccc2oc(-c3ccc(F)cc3)nc2c1	-7%	-4%
CC(=O)c1ccc(-n2nncc2C)cc1	x	-18%
c1ccc(-c2cnc(-c3ccccn3)nn2)cc1	-2%	-4%
Cc1nc2c(S(=O)(=O)c3ccccc3)cnn2c(C)c1C	i	-7%
Cc1ccc2cc(CCNC(=O)c3c(-c4ccccc4Cl)noc3C)c(=O)[nH]c2c1	-10%	-20%
O=c1[nH]c(N/N=C\c2ccc(F)cc2)nc2ccccc12	i	-14%
Cc1nc(NC(=O)c2cccnc2)ccc1Br	x	-14%
CCS(=O)(=O)NCCc1cc2c(OC)ccc(OC)c2[nH]c1=O	i	-2%
CNc1c(Br)cc(C(O)C2=CCc3ccccc32)cc1Br (centres undefined)	-22%	-16%
CNC(=O)c1ccccc1S(=O)c1ccccc1COC(C)=O (centres undefined)	-9%	-12%
Cc1ccc(C(=O)CN(C(=O)c2ccc(Cl)cc2)N2C(=O)c3ccccc3C2=O)cc1	i	-4%
O=P1(Oc2ccccc2)C[C@@H](O)[C@@H](O)[C@H](COCc2ccccc2)O1 (some centres undefined)	i	-7%
O=C(CC1Sc2ccccc2NC1=O)Nc1cccnc1 (centres undefined)	i	-7%
COc1ccc(CN2CCCCC2C(=O)Nc2ccc(OC)c(OC)c2)cc1OC (centres undefined)	-3%	-16%
O=C(c1ccccc1NS(=O)(=O)c1ccc(F)cc1)N1CCCCC1	-13%	4%
O=C(CN1C(=O)NC2(CCOc3ccccc32)C1=O)NCC(F)(F)F (centres undefined)	i	-2%
Cc1ccc(S(=O)(=O)Nc2ccc(S(=O)(=O)Nc3nccs3)cc2)cc1C	-7%	5%
CCc1cccc(NC(=O)COC(=O)C2CCN(c3ccc(C(F)(F)F)cn3)CC2)c1	i	-4%
O=C(CN(Cc1ccco1)S(=O)(=O)c1ccccc1)N/N=C/c1ccccc1C(=O)O	0%	1%
CCNC(=S)N1CCC(C(N)=O)CC1	-11%	-9%
CC(C)(C)C(=O)NC1(C(F)(F)F)C(=O)Nc2c1c(=O)[nH]c(=O)n2-c1ccccc1 (centres undefined)	0%	11%
COc1cc(Cl)ccc1OC(=O)c1cn(-c2ccccc2OC)c(=O)c2ccccc12	-7%	6%
